Screening data from PubChem BioAssay.
Rce1 inh – yeast Ras-converting enzyme inhibition | calls only | yeast membranes, quenched prenylated peptide cleavage fluorescence | 0.27% of 290,000 active;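 active means fall in fluorescence gain of 50% or more versus controls, with final raw signal at or below 3038400; inconclusive means same 50% fall but final raw signal above 3038400; inactive means fall in fluorescence gain under 50%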;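 further: plate controls were neutral control wells for no effect and wells lacking membranes for full effect; tested at 10 µM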
Target sequence (Q03530 whole entry, looked up): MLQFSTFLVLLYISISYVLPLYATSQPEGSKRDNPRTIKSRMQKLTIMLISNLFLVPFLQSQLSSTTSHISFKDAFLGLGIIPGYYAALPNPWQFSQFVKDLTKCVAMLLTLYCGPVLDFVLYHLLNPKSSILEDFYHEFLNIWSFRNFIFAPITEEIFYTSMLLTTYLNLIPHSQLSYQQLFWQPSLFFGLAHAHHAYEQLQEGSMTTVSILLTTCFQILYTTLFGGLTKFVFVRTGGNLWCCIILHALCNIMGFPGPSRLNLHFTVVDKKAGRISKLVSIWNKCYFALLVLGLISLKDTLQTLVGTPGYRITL
Env fusion inh – inhibitors of HIV Env-mediated cell fusion | HeLa-JRFL Env/CEM21 cell fusion, luciferase | inhibition, % at 12.3 µM | 1.1% of 360,000 active;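 active means mean replicate inhibition score of at least 50 and every replicate individually at or above 50; inconclusive means only one of the two criteria met; inactive means mean below 50 and not all replicates reaching 50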;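 further: 0% = plate neutral controls and 100% = maraviroc near 300 nM; one replicate is shown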
eIF4H inh – inhibitors of RNA binding by human eIF4H. Q15056. eIF4H fluorescence polarization binding assay. inhibition, % at 35 µM. 0.94% of 290,000 active. AID 2012;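 active means 50% or more with normal probe brightness, or confirmed in later tests; inconclusive means above 50% with abnormal brightness, or retests that disagree; inactive means below 50% or failed in later tests; about a fifth of its hits are not listed in these tables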;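 further: calls also rest on retests at 20 µM and on dose response follow-up; 0% = protein and probe with vehicle and 100% = probe without protein; strong numbers were not always called active; many hits fall short of the cut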
PABP FP inh – blocks human PABP binding to poly(A) RNA. P11940. fluorescence polarization. inhibition, % at 35 µM. 1% of 290,000 active. AID 2014;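 active means 50% or more with normal probe brightness, or confirmed in later tests; inconclusive means above 50% with abnormal brightness, or retests that disagree; inactive means below 50% or failed in later tests; about a fifth of its hits are not listed in these tables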;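 further: calls also rest on retests at 20 µM and on dose response follow-up; controls were probe without protein and protein plus probe with vehicle; some compounds called inactive have numbers as strong as hits; many hits fall short of the cut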
Target sequence (P11940 whole entry, looked up): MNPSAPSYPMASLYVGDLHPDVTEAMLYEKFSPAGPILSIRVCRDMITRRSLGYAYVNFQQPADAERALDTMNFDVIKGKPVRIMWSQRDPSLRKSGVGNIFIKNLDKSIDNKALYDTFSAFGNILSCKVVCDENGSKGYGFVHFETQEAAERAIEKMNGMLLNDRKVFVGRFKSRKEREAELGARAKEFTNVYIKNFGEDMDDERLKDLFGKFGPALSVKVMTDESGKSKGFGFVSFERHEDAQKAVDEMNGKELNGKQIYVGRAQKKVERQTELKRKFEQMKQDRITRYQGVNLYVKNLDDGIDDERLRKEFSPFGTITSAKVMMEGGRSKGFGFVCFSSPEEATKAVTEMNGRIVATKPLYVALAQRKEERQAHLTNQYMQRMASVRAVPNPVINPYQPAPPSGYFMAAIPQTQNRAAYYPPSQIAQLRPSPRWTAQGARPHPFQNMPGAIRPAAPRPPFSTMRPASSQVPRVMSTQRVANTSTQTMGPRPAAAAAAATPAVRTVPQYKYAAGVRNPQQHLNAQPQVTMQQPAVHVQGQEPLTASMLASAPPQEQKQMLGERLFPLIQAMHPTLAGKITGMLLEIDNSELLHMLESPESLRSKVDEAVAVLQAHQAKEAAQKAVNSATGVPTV
Yeast UUG start – yeast start codon fidelity modulation. S. cerevisiae UUG-firefly luciferase reporter, luminescence/redox ratio. activity score, % at 18.7 µM. 0.13% of 350,000 active;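 active means replicate mean at a twofold rise or more, about +100% in these data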;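 further: firefly luciferase made from a UUG start codon reports start codon fidelity; reporter light over untreated wells divided by growth signal over untreated wells; some hits fall short of that in this replicate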
CSC inhib – blocks cancer stem cells | cancer stem cell-like cells viability, luminescence | inhibition, % at 7.5 µM | 1.1% of 300,000 active;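 active means mean at 75% or more and at least half the replicates too; inconclusive means mean and replicates disagree; tested in HMLE shEcad cells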;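 further: 0% = median of negative and 100% = median of positive control wells; the first replicate is given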
MT1-MMP act inh – MT1-MMP (human) activation inhibition; P50281; 0.061% of 360,000 active; GFP/RFP ratio change, % at 20 µM; HT1080 RFP-PRO-GFP cells, GFP/RFP ratio fluorescence, overnight; percent of plate control window, DMSO zero; AID 651647;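 active means GFP/RFP ratio change of at least 30% with cell ATP level not reduced by more than half and red fluorescence within 50% of control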; further: strong numbers were not always called active
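system = RFP-PRO-GFP reporter HT1080 cells | dosing = 20 µM single dose, 1% DMSO | timing = overnight cell settling, then overnight compound exposure, 37 °C, 5% CO2 | read-out basis = GFP/RFP fluorescence ratio | controls = DMSO and RFP-L50D-GFP cell wells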
MT1-MMP act inh RFP – second read-out of MT1-MMP act inh, no call of its own (marks repeat the call); RFP signal change, %; measured here: RFP expression control read;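 0 = vehicle wells; hits needed this value within 50% of zero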
* = called active by the depositor.

CC(NC(=O)COC(=O)c1cccs1)c1ccccc1 (stereo not drawn) was read as Rce1 inh inactive, Env fusion inh 0, eIF4H inh -8, PABP FP inh -9, Yeast UUG start 15, CSC inhib -11, MT1-MMP act inh 2 and MT1-MMP act inh RFP 2.
Screening c1ccc(CSc2ccc3nnc(-c4ccccn4)n3n2)cc1 returned Rce1 inh inactive, Env fusion inh 23, eIF4H inh -1, PABP FP inh -3, MT1-MMP act inh 0 and MT1-MMP act inh RFP 1.
N#C/C(=C\c1cc(Br)ccc1F)C(=O)NC1CC1 was read as Rce1 inh inactive, Env fusion inh -247, eIF4H inh 6, PABP FP inh -3, Yeast UUG start -15, CSC inhib -4, MT1-MMP act inh 1 and MT1-MMP act inh RFP 7.
O=C(CN(CC1CCCO1)C(=O)CNS(=O)(=O)c1ccccc1)NCc1ccco1 (stereo not drawn) was read as Rce1 inh inactive, Env fusion inh 3, eIF4H inh -18, PABP FP inh -12, MT1-MMP act inh -1 and MT1-MMP act inh RFP 6.
Screening CNC(=S)N(CCc1c(C)[nH]c2ccccc12)Cc1cc(OC)c(OC)c(OC)c1 returned Rce1 inh inactive, Env fusion inh 15, eIF4H inh -4, PABP FP inh 1, Yeast UUG start -24, CSC inhib -13, MT1-MMP act inh 1 and MT1-MMP act inh RFP 2.
Screening COc1ccc2cc(C(=O)C3CCCN(C(=O)c4csnn4)C3)ccc2c1 (stereo not drawn) returned Rce1 inh inactive, Env fusion inh 19, eIF4H inh 1, PABP FP inh 4, CSC inhib 3, MT1-MMP act inh -1 and MT1-MMP act inh RFP 5.
Screening CC(C)c1ccc(N2CCN(C(=O)c3ccccc3NC(=O)/C=C\C(=O)O)CC2)cc1 returned Rce1 inh inactive, eIF4H inh -6, PABP FP inh 5, Yeast UUG start 0, CSC inhib -10, MT1-MMP act inh 1 and MT1-MMP act inh RFP 1.
O=C(NCc1ccccn1)Nc1ccc(Cl)cc1 was read as Rce1 inh inactive, Env fusion inh 9, Yeast UUG start -23, CSC inhib -8, MT1-MMP act inh 3 and MT1-MMP act inh RFP 1.
For O=C(C1CCN(Cc2ccc(F)cc2)CC1)N1CCN(C/C=C/c2ccccc2)CC1 the results were Rce1 inh inactive, Env fusion inh 13, eIF4H inh 8, PABP FP inh -12, CSC inhib -2, MT1-MMP act inh 4 and MT1-MMP act inh RFP 0.
`CN1C(=O)N(c2cccc3ccccc23)C(n2cncn2)C1(C)C` (stereo not drawn) gave Rce1 inh inactive, Env fusion inh 9, eIF4H inh -2, PABP FP inh -2, Yeast UUG start -16, CSC inhib -5, MT1-MMP act inh 6 and MT1-MMP act inh RFP 8.
Cc1ccc2c(c1)nnn2C1CCN(CC(=O)N2CCN(c3ccc(F)cc3)CC2)CC1 was read as Rce1 inh inactive, Env fusion inh inconclusive, eIF4H inh -6, PABP FP inh 4, Yeast UUG start -5, CSC inhib 20, MT1-MMP act inh -2 and MT1-MMP act inh RFP -6.
For N#C/C(C(=O)NCc1ccco1)=C1/SC(Cc2ccc(F)cc2)C(=O)N1c1ccccc1 (stereo not drawn) the results were Rce1 inh inactive, eIF4H inh -5, PABP FP inh -1, Yeast UUG start -8, CSC inhib -1, MT1-MMP act inh -8 and MT1-MMP act inh RFP 6.

Retrieved by compound from the entries so far, 3 records:
O=C(CN(CC1CCCO1)C(=O)CNS(=O)(=O)c1ccccc1)NCc1ccco1 (stereo not drawn) was read as Rce1 inh inactive, Env fusion inh 3, eIF4H inh -18, PABP FP inh -12, MT1-MMP act inh -1 and MT1-MMP act inh RFP 6.
For N#C/C(C(=O)NCc1ccco1)=C1/SC(Cc2ccc(F)cc2)C(=O)N1c1ccccc1 (stereo not drawn) the results were Rce1 inh inactive, eIF4H inh -5, PABP FP inh -1, Yeast UUG start -8, CSC inhib -1, MT1-MMP act inh -8 and MT1-MMP act inh RFP 6.
Cc1ccc2c(c1)nnn2C1CCN(CC(=O)N2CCN(c3ccc(F)cc3)CC2)CC1 was read as Rce1 inh inactive, Env fusion inh inconclusive, eIF4H inh -6, PABP FP inh 4, Yeast UUG start -5, CSC inhib 20, MT1-MMP act inh -2 and MT1-MMP act inh RFP -6.

Back to the main list with the 2 entries that preceded the break.
Cc1ccc2c(c1)nnn2C1CCN(CC(=O)N2CCN(c3ccc(F)cc3)CC2)CC1 was read as Rce1 inh inactive, Env fusion inh inconclusive, eIF4H inh -6, PABP FP inh 4, Yeast UUG start -5, CSC inhib 20, MT1-MMP act inh -2 and MT1-MMP act inh RFP -6.
For N#C/C(C(=O)NCc1ccco1)=C1/SC(Cc2ccc(F)cc2)C(=O)N1c1ccccc1 (stereo not drawn) the results were Rce1 inh inactive, eIF4H inh -5, PABP FP inh -1, Yeast UUG start -8, CSC inhib -1, MT1-MMP act inh -8 and MT1-MMP act inh RFP 6.
`COc1ccccc1CCNC(=O)C(=O)NCC1OCCN1S(=O)(=O)c1ccc(Cl)cc1` (stereo not drawn) gave Rce1 inh inactive, eIF4H inh -9, PABP FP inh -6, Yeast UUG start -11, CSC inhib -12, MT1-MMP act inh -1 and MT1-MMP act inh RFP -17.
For Cc1nc(N)c(C#N)c(-c2ccccc2Cl)c1C the results were Rce1 inh inactive, eIF4H inh -1, PABP FP inh 2, Yeast UUG start 5, MT1-MMP act inh -11 and MT1-MMP act inh RFP -9.
For CC(=O)N1CCN(S(=O)(=O)c2cccc(C(=O)N(Cc3ccccc3)c3cccc(C)c3)c2)CC1 the results were Rce1 inh inactive, Env fusion inh 22, Yeast UUG start 11, CSC inhib 10, MT1-MMP act inh -2 and MT1-MMP act inh RFP -1.
`O=C(CCCN=C1NS(=O)(=O)c2ccccc21)OCc1ccc(F)cc1` gave Rce1 inh inactive, Env fusion inh 1, CSC inhib -5, MT1-MMP act inh -3 and MT1-MMP act inh RFP -4.
COC(CNC(=O)c1ccc2c(c1)ncn2C1CCCCCC1)OC was read as Rce1 inh inactive, Env fusion inh -6, eIF4H inh 0, PABP FP inh 18, Yeast UUG start -10, CSC inhib -6, MT1-MMP act inh 0 and MT1-MMP act inh RFP 2.
For CCCN(CC(=O)Nc1ccc(F)c(F)c1F)C(=O)c1ccc2c(=O)n3c(nc2c1)CCC3 the results were Rce1 inh inactive, Env fusion inh -6, Yeast UUG start 16, CSC inhib 11, MT1-MMP act inh 2 and MT1-MMP act inh RFP 1.
`COc1ccccc1CNC(=O)C1CCC(CNS(=O)(=O)c2ccc(C)cc2)CC1` (stereo not drawn) gave Rce1 inh inactive, Env fusion inh 0, eIF4H inh 7, PABP FP inh 4, Yeast UUG start 6, CSC inhib -16, MT1-MMP act inh 0 and MT1-MMP act inh RFP -2.
`CC1(C(=O)Nc2cnc3ccccc3c2)CCN1Cc1ccc(OC(F)(F)F)cc1` (stereo not drawn) gave Env fusion inh 41, Yeast UUG start 13, MT1-MMP act inh -2 and MT1-MMP act inh RFP -1.
For Cc1ccc(-c2nnc(SCC(=O)N3CCOCC3)nc2-c2ccc(C)cc2)cc1 the results were Rce1 inh inactive, eIF4H inh -2, PABP FP inh 4, MT1-MMP act inh -9 and MT1-MMP act inh RFP -4.
`Cc1cc([N+](=O)[O-])nn1CC(=O)N/N=C/c1ccccc1Br` gave Rce1 inh inactive, Env fusion inh 6, eIF4H inh -5, PABP FP inh 5, CSC inhib -10, MT1-MMP act inh 3 and MT1-MMP act inh RFP -5.
Screening Cc1cc(Br)ccc1NC(=O)CNC(=O)c1ccc(-n2cncn2)c([N+](=O)[O-])c1 returned Rce1 inh inactive, Yeast UUG start -13, CSC inhib -12, MT1-MMP act inh 1 and MT1-MMP act inh RFP -3.
For O=C(c1ccc(Cl)c(S(=O)(=O)N2CCCCC2)c1)N1CCCCC1 the results were Rce1 inh inactive, Env fusion inh 23, eIF4H inh -5, PABP FP inh -6, Yeast UUG start -1, CSC inhib -2, MT1-MMP act inh 0 and MT1-MMP act inh RFP -3.
CCN(CC)CCN(C(=O)c1ccc2ccccc2c1)c1nc2ccc(F)cc2s1 was read as Rce1 inh active, Env fusion inh 25, eIF4H inh -8, PABP FP inh 4, Yeast UUG start 1, CSC inhib 6, MT1-MMP act inh -5 and MT1-MMP act inh RFP -5.
Screening CC(=O)N[C@@H](Cc1ccc(O)cc1)CN1C(N)=NC[C@@H]1CC(C)C returned Rce1 inh inactive, Env fusion inh 11, eIF4H inh 3, PABP FP inh 12, Yeast UUG start -13, CSC inhib -4, MT1-MMP act inh 1 and MT1-MMP act inh RFP 5.
`CC(C)(C)CN1CCN(CCCc2ccccc2)C(CCO)C1` (stereo not drawn) gave Rce1 inh inactive, Env fusion inh 17, eIF4H inh 31, PABP FP inh -1, Yeast UUG start -1, CSC inhib 4, MT1-MMP act inh 0 and MT1-MMP act inh RFP 3.
Screening COC(=O)C1CCN(C2CC(=O)N(c3cc(C)cc(C)c3)C2=O)CC1 (stereo not drawn) returned Env fusion inh -3, eIF4H inh -9, PABP FP inh 6, CSC inhib -4, MT1-MMP act inh 0 and MT1-MMP act inh RFP 4.
For CCOc1ccc(CCNC(=O)c2cc(S(=O)(=O)N3CCOCC3)ccc2C)cc1OCC the results were Rce1 inh inactive, Env fusion inh -1, CSC inhib -7, MT1-MMP act inh 0 and MT1-MMP act inh RFP -1.
`O=C(Nc1ccc(Oc2ccccc2)cc1)C1CCCN(c2ncccn2)C1` (stereo not drawn) gave Rce1 inh inactive, eIF4H inh -3, PABP FP inh 1, Yeast UUG start -6, CSC inhib 6, MT1-MMP act inh -2 and MT1-MMP act inh RFP 1.
`O=C(NNC(=O)c1ccc(Oc2ccc(C3SCCS3)cc2)o1)c1ccc(Cl)cc1` gave Rce1 inh inactive, Env fusion inh -7, eIF4H inh 12, PABP FP inh 13, CSC inhib 29, MT1-MMP act inh -3 and MT1-MMP act inh RFP -18.
For CCCCn1c(SCC(=O)c2ccc(O)c(O)c2)nc2ccsc2c1=O the results were Rce1 inh inactive, eIF4H inh 2, PABP FP inh 9, CSC inhib 30, MT1-MMP act inh 1 and MT1-MMP act inh RFP -9.
Screening CCCC(C)c1nnc(NC(=O)CS(=O)(=O)Cc2ccccc2)s1 (stereo not drawn) returned Rce1 inh inactive, Env fusion inh -65, eIF4H inh -2, PABP FP inh -3, Yeast UUG start -15, MT1-MMP act inh -6 and MT1-MMP act inh RFP 2.
For CN(CCc1ccccn1)S(=O)(=O)c1ccc2c3c(cccc13)C(=O)N2 the results were Rce1 inh inactive, Env fusion inh -30, eIF4H inh -2, PABP FP inh -2, Yeast UUG start 1, CSC inhib 9, MT1-MMP act inh -4 and MT1-MMP act inh RFP 1.
Cc1cccc(C(=O)N2CCC(=O)N(C(COCc3cccc(C(F)(F)F)c3)Cc3ccccc3)CC2)c1 (stereo not drawn) was read as Rce1 inh inactive, Env fusion inh 26, eIF4H inh 19, PABP FP inh 2, Yeast UUG start -17, CSC inhib 19, MT1-MMP act inh 3 and MT1-MMP act inh RFP -5.
CN(C(=O)COC(=O)CNC(=O)c1cccs1)c1c(N)n(Cc2ccccc2)c(=O)[nH]c1=O was read as Yeast UUG start -9, CSC inhib 8, MT1-MMP act inh 0 and MT1-MMP act inh RFP 2.
`CCn1c(/N=C/c2c[nH]c3ccccc23)nc2ccccc21` gave Rce1 inh inactive, Env fusion inh -51, eIF4H inh 12, PABP FP inh -6, Yeast UUG start -17, CSC inhib 1, MT1-MMP act inh 1 and MT1-MMP act inh RFP 0.
COC(=O)Nc1ccc(S(=O)(=O)N2CCC(C)CC2)cc1 was read as Rce1 inh inactive, Env fusion inh 4, eIF4H inh -5, PABP FP inh 2, Yeast UUG start 4, CSC inhib -4, MT1-MMP act inh 1 and MT1-MMP act inh RFP -6.
For CC(=O)c1sc(=S)n(-c2ccc(Cl)cc2)c1C the results were Rce1 inh inactive, Env fusion inh -9, eIF4H inh 7, PABP FP inh 5, CSC inhib 55, MT1-MMP act inh 3 and MT1-MMP act inh RFP 4.

Some of the compounds tested (hit frequency here may not be typical).
